# D2 PAM – potentiates the human D2 dopamine receptor allosterically; DiscoveRx D2 beta-arrestin cells, luminescence, 90 min; 100% = 57 uM dopamine signal; potentiation, % (test concentration not listed); hit rate 0.23% among 360,000; P14416; active = potentiation of 50% or more; inconclusive = 30% to 50%; inactive = 30% or less;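 note: compound concentration not given in the record; tested on top of an EC20 dose of dopamine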
#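 PathHunter beta-arrestin assay in DiscoveRx D2 cells. Compounds were added with an EC20 of dopamine (50 nM final) for 90 min at 37 deg C. Luminescence was read 1 h after detection reagent, with 57 uM dopamine as the EC100 control.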
# Sfp inh – Sfp phosphopantetheinyl transferase inhibition; Q9F4F7; Biochemical Sfp PPTase activity, qHTS; Potency, µM, for the others: max response, negative = inhibition, actives largely listed as inhibitors; hit rate 3.5% among 310,000; AID 1490; active = well fitted inhibition curve with a large enough effect; inconclusive = small, poorly fitted or top-dose-only effect, or another doubt; inactive = no such curve, though single readings can be large or run the other way;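 note: the enzyme is Sfp with the accession as filed and its product quenches rhodamine fluorescence; potency is the fitted concentration of half-maximal effect; 0% = enzyme reaction without inhibitor and -100% = no enzyme wells; top concentration of the series not given in the record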
#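 Compounds were incubated with enzyme (final 15 nM) for 15 min at room temperature before substrate addition started the reaction. Fluorescence at 525 nm excitation, 598 nm emission was recorded immediately and after 30 minutes.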
# CtBP-E1A inh – inhibitors of CtBP/E1A interaction. AlphaScreen GST-E1A/His-CtBP binding, 1536-well; hits give low values; control for the full effect not named in the record. activity change, % (no concentration beside the values). hit rate 0.49% among 340,000. AID 651724; in the data active means activity change below about -65%; inconclusive means about -30% to -65%; inactive means above about -30%; note: % is set by controls: 0 for no effect and ±100 for the full control effect; compound concentration not given in the record
#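 Protein mix (5X: 125 nM each GST-E1A, His-CtBP) was incubated with pinned compound 2 h at 37 deg C in dark, in 50 mM Tris pH 8.0 buffer with 300 mM NaCl. Glutathione donor and nickel acceptor beads followed; AlphaScreen signal read after 1 h.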
# PINK1 expr mod – PINK1 expression modulation. Potency, µM (top dose mostly 76.6 µM), for the others: top-dose activation (PINK1 increase), hits mostly activators. hit rate 0.2% among 410,000. PINK1 immunofluorescence, high-content cytometry, 24 h; active = well fitted activation curve with a large enough effect; inconclusive = small, poorly fitted or top-dose-only effect; inactive = flat fitted curve, though single readings scatter; cell line not stated here;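 note: potency is the fitted concentration of half-maximal effect; % of control where 0% means no effect; nearly all actives have a fitted effect of over 65% in size; a mitochondrial uncoupler was the plate control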
#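 Fluorescence from anti-PINK1 antibody, together with nuclear and cell stains, was scanned on a laser-scanning cytometer. Before staining, stable-line cells were incubated 24 hours with compounds at 5 concentrations; primary antibody 12 h at 10 degrees C.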
# TRPV1 PAM – human TRPV1 potentiation | hit rate 0.02% among 320,000 | potentiation, % at 8.33 µM | TRPV1-expressing cells, Fluo-8 calcium influx, capsaicin EC20 potentiation; host cell line not named in the record; control for the full effect not named in the record | Q8NER1; active means potentiation above 80%; inconclusive means 30% to 80%; inactive means below 30%; note: 0% is about no effect
# Target sequence (Q8NER1 whole entry, looked up): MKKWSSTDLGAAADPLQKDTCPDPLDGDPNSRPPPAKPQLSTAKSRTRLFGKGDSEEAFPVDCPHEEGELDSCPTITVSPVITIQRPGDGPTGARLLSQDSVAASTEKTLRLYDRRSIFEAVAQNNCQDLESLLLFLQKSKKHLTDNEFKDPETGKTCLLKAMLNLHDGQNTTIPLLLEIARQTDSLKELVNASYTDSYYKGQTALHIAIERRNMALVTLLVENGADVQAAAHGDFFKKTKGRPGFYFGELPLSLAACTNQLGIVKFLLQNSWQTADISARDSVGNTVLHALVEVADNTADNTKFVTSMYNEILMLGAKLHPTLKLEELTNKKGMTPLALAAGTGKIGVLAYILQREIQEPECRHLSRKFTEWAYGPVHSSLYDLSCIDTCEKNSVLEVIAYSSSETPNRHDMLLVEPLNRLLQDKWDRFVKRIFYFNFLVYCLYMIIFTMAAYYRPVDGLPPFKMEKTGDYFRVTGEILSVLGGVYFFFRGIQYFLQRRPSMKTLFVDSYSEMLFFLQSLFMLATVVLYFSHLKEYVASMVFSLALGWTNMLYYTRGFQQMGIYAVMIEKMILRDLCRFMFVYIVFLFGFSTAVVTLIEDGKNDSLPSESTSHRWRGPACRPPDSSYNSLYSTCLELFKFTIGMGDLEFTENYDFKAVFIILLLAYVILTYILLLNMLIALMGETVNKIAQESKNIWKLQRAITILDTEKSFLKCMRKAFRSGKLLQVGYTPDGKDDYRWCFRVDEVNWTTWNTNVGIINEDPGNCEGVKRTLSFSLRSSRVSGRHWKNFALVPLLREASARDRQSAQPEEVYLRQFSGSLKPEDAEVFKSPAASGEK
#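 TRPV1-expressing cells were cultured overnight at 35.5C and loaded with Fluo-8 calcium dye for 40 to 90 min at room temperature. After a 10 s baseline, compound was added and calcium influx was read kinetically for 3 min (ex 480/em 520 nm).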
# Six1-Eya2 blk – inhibitors of human Six1/Eya2 interaction; Q15475+O00167; AID 651725; activity change, % (no concentration beside the values); AlphaScreen GST-Six1/His-Eya2 binding, biochemical; hits give low values; control for the full effect not named in the record; hit rate 0.56% among 360,000; in the data active = activity change below about -65%; inconclusive = about -30% to -65%; inactive = above about -30%; note: % is set by controls: 0 for no effect and ±100 for the full control effect; compound concentration not given in the record
#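 Compounds are tested against tagged Six1 and Eya2 proteins bridged by glutathione donor and nickel acceptor beads; after a one-hour incubation at 37 °C without light, AlphaScreen emission is recorded.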
# D2 agonist – agonists of human D2 dopamine receptor (beta-arrestin); P14416; DiscoveRx PathHunter D2 beta-arrestin, luminescence, 90 min; 100% = 57 uM dopamine signal; hit rate 0.084% among 360,000; AID 624465; activation, % (test concentration not listed); in the data active = activation above about 40%; inconclusive = about 15% to 40%; inactive = below about 15%; note: compound concentration not given in the record; the text of the record calls up to 30% inactive
#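 Agonist mode: compounds alone added to overnight-plated D2 PathHunter cells for 90 min at 37 C, with 57 uM final dopamine (EC100) defining full response. Beta-arrestin recruitment detected by chemiluminescent reagent, read after 1 h at ambient temperature.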
# An asterisk follows results filed as active; ? = inconclusive; / = not tested or not shown; [ ] = remark or other dose.
SMILES,D2 PAM,Sfp inh,CtBP-E1A inh,PINK1 expr mod,TRPV1 PAM,Six1-Eya2 blk,D2 agonist
CCOC(=O)c1ccc(NC(=O)c2nn(C)cc2Br)cc1,-3,6%,2,4.9%,-18,4,-2.3
COc1ccc(S(=O)(=O)N2CC(C(=O)O)Oc3ccccc32)cc1 (stereo not drawn),1,5%,4,3.1%,0,10,-0.5
CCN(CC)S(=O)(=O)c1cccc(C(=O)NC(C(=O)NNC(=O)c2ccccc2F)C(C)C)c1 (stereo not drawn),-3,/,2,1.0%,/,9,3.0
CC1(C)C2([N+](=O)[O-])CN3CC1([N+](=O)[O-])CN(C2)C3c1ccc(O)c(O)c1 (stereo not drawn),5,-6%,-6,-1.5%,22,-1,1.5
COc1cccc(NC(=O)CN(C)C(=O)c2cccc(S(=O)(=O)N3c4ccccc4CC3C)c2)c1 (stereo not drawn),9,/,-2,-4.3%,-45,-13,0.6
CN(CCCC(=O)NCCc1ccccc1)S(=O)(=O)c1ccc([N+](=O)[O-])cc1,8,6%,5,0.0%,1,0,?
CCOC(=O)c1cc(CC)sc1NC(=O)CCC(=O)O,-13,7%,-5,-1.8%,4,12,0.0
O=S(=O)(Nc1ccc2c(c1)OCO2)c1ccccc1,-2,-6%,0,-3.7%,-3,-11,-4.0
CC12CCC(=O)N1C(C(=O)Nc1cc(S(=O)(=O)N3CCCCCC3)ccc1OCC(F)(F)F)CS2 (stereo not drawn),-19,8%,-4,1.2%,-11,-4,-3.0
Cc1cc(C)c(C#N)c(Sc2nc(C)c([N+](=O)[O-])c(C)c2C#N)n1,3,/,-16,0.7%,/,-1,-1.7
O=S(=O)(c1ccccc1)N1CCN(C(=S)NCc2ccccc2)CC1,5,9%,0,0.1%,18,-22,2.6
O=C(C1CN(S(=O)(=O)c2ccccc2)CCN1S(=O)(=O)c1ccccc1)N1CCCCCC1 (stereo not drawn),-6,-11%,-6,1.3%,20,-3,0.3
CC(=O)Nc1cccc(/C(C)=N\NC(=O)c2ccc(Cn3nc([N+](=O)[O-])c(Cl)c3C)o2)c1,1,0%,-15,0.9%,2,-10,-6.8
C=CC[C@H]1CC(Cc2ccccc2)=C[C@H](CC=C)N1,-17,13%,-2,5.9%,2,-9,-1.5
CCC1CCC2(CC1)NC(=O)N(CC(=O)NCc1ccccc1Cl)C2=O (stereo not drawn),-13,/,8,-1.1%,/,4,-0.9
OC(COCc1cccs1)CN1CCN(c2ccccc2Cl)CC1 (stereo not drawn),-31,0%,0,7.0%,-1,1,3.0
CCc1nnc(NC(=O)CCN2C(=O)C3CCCCC3C2=O)s1 (stereo not drawn),-11,21%,-23,3.0%,1,-2,-0.8
COc1ccccc1C(=O)n1nc(-c2ccccc2)nc1N,-26,4%,4,1.9%,3,-1,-1.6
COc1ccc(NC(=O)c2ccc(-n3nc(C)c[n+]3[O-])cc2)cc1,-9,5%,-2,-1.3%,-5,10,2.1
CCC1Oc2nc(SC)nnc2-c2ccccc2N1C(=O)c1ccccc1 (stereo not drawn),-7,7%,-2,3.8%,-3,-9,-2.9

# Filtered by structure: the compounds so far containing an aryl thioether with sulfur outside any ring (2)
SMILES,D2 PAM,Sfp inh,CtBP-E1A inh,PINK1 expr mod,TRPV1 PAM,Six1-Eya2 blk,D2 agonist
Cc1cc(C)c(C#N)c(Sc2nc(C)c([N+](=O)[O-])c(C)c2C#N)n1,3,/,-16,0.7%,/,-1,-1.7
CCC1Oc2nc(SC)nnc2-c2ccccc2N1C(=O)c1ccccc1 (stereo not drawn),-7,7%,-2,3.8%,-3,-9,-2.9

# New compounds follow
SMILES,D2 PAM,Sfp inh,CtBP-E1A inh,PINK1 expr mod,TRPV1 PAM,Six1-Eya2 blk,D2 agonist
COc1ccc(Cn2cnc3c(NS(C)(=O)=O)c(C)c(C)cc32)cc1,-3,-17%,6,-3.3%,8,-1,-1.7
C[C@H]1CN([C@@H](C)CO)S(=O)(=O)c2ccc(C#CC3CC3)cc2O[C@@H]1CN(C)S(C)(=O)=O,0,/,-14,-0.1%,/,0,-6.9
COc1ccc(CCNC(=S)NCc2ccc(Cl)c(Cl)c2)cc1OC,-11,12%,19,15%,-1,-6,0.9
CC(C)(C=O)C1=CC(=O)c2ccccc2C1=O,-30,6.3µM*,11,-1.7%,8,?,-3.0
Cc1oc2ccc(OCc3ccc(Cl)cc3)cc2c1C(=O)O,6,-3%,-1,2.0%,16,8,-4.2
CCc1nc2c(OCC(=O)c3ccc(Cl)cc3Cl)cccn2c1N(C)C(=O)c1cccs1,-4,/,-8,11%,/,-18,-1.7
O=C(COC(=O)c1ccc(Cl)c(Cl)c1)Nc1cccnc1Cl,-13,-5%,-8,3.9%,-9,-1,-0.6
O=C(c1ccco1)N1CCN(C(=O)C2CCCc3c2[nH]c2ccc(Cl)cc32)CC1 (stereo not drawn),6,-9%,-2,2.3%,7,-7,-3.6
COc1ccc(Oc2ncnc3sccc23)cc1,2,21%,11,1.3%,-2,-13,-2.4
CCC(Oc1ccccc1)C(=O)Nc1ccsc1C(=O)OC (stereo not drawn),18,-25%,4,9.5%,5,25,2.7
O=C(N/C(=C\c1ccc(O)cc1)C(=O)N1CCCCC1)c1ccccc1,3,12%,-5,4.8%,-7,-1,-2.0
CN(C)c1ccc(/C=C(\C#N)c2ccccc2)cc1,?,-10%,/,16%,7,?,-1.7
Cc1nc2cc(C(=O)OCC(=O)NC(C)C(C)C)ccc2n1-c1ccccc1 (stereo not drawn),-6,1%,9,4.0%,-5,-1,-6.9
COc1ccccc1CC(NC(C)=O)C(=O)N1CCN(C(=O)Nc2ccccc2Cl)CC1 (stereo not drawn),-7,18%,4,-4.1%[38.3 µM],-2,7,-2.1
CC(C)Oc1cccc(-c2cc(C(=O)NN3CCOCC3)c3ccccc3n2)c1,17,6%,3,2.0%,7,3,0.1
Cc1ccc(Nc2nc(N)nc(CSC(=S)N3CCOCC3)n2)cc1,-8,4%,-2,0.5%,-16,-10,-3.1
COC(=O)C1(C(=O)OC)NOC2C(=O)N(c3ccccc3)C(=O)C21 (stereo not drawn),-4,14%,5,17%[38.3 µM],2,1,1.4
O=C(c1cn(-c2ccccc2)nc1-c1ccc(Cl)cc1)N1CCOCC1,-16,14%,8,3.5%,-11,19,-1.9
CC#CCCCC(=O)Nc1cccc(C(=O)O)c1,-4,2%,1,3.6%,5,0,0.7
COc1ccc2nc(-c3ccccc3)cc(C(=O)OCC(=O)N3CC(C)OC(C)C3)c2c1 (stereo not drawn),4,/,3,0.5%,-6,27,3.6

# Three entries from above, reformatted.
# Sequence of screens: D2 PAM | Sfp inh | CtBP-E1A inh | PINK1 expr mod | TRPV1 PAM | Six1-Eya2 blk | D2 agonist
COc1ccccc1CC(NC(C)=O)C(=O)N1CCN(C(=O)Nc2ccccc2Cl)CC1 (stereo not drawn)
  -7 | 18% | 4 | -4.1%[38.3 µM] | -2 | 7 | -2.1
CCc1nnc(NC(=O)CCN2C(=O)C3CCCCC3C2=O)s1 (stereo not drawn)
  -11 | 21% | -23 | 3.0% | 1 | -2 | -0.8
Cc1nc2cc(C(=O)OCC(=O)NC(C)C(C)C)ccc2n1-c1ccccc1 (stereo not drawn)
  -6 | 1% | 9 | 4.0% | -5 | -1 | -6.9

# Remaining list, next part:
SMILES,D2 PAM,Sfp inh,CtBP-E1A inh,PINK1 expr mod,TRPV1 PAM,Six1-Eya2 blk,D2 agonist
CC(C)(C)N1C(=O)[C@H]2[C@@H](c3ccc(Br)cc3)N3C(=O)N(c4cccc(Cl)c4)C(=O)[C@@]3(Cc3ccccc3)[C@H]2C1=O,-3,/,/,-0.2%,8,-2,2.8
COc1ccc(/C=N/n2c(C)nc3sc(C)c(C)c3c2=O)cc1,-1,10%,-4,-0.2%,/,-1,-2.4
COc1cccc(-n2c(SCC(=O)NC3CCS(=O)(=O)C3)nc3ccccc3c2=O)c1 (stereo not drawn),-4,/,/,2.7%,8,0,-4.6
Cc1nn(-c2ccccc2)c(C)c1/C=C/C(=O)OCC(=O)Nc1ccc(S(N)(=O)=O)cc1,-2,/,-88*,-1.0%,14,-20,1.4
CN(CC(=O)NCc1cccs1)CC(=O)Nc1ccccc1Cl,-10,/,-1,-1.3%,/,4,-3.3
CCN(CC)C(=O)CSc1nnc(-c2ccc(S(=O)(=O)N3CCCC3)cc2)o1,-11,23%,1,-1.2%,6,-1,-3.9
Cc1nnc(NC(=O)CSc2nnc(-c3ccc(S(=O)(=O)N4CCCC4)cc3)n2C)s1,-6,11%,-3,7.2%[38.3 µM],3,1,-2.5
C[C@H](CO)N1C[C@H](C)[C@@H](CN(C)S(=O)(=O)c2ccccc2F)OCc2cnnn2CCCC1=O,/,/,-1,0.3%,/,-3,0.0
Cc1nn(CC(=O)Nc2ccc(Cl)cc2Cl)c(=O)c2ccccc12,-13,-3%,-9,6.9%,10,3,-1.6
CCOc1ncccc1C(=O)OCC(=O)c1ccc(OC)c(OC)c1,-6,0%,-4,0.3%,23,-10,-0.6
CCc1noc(C)c1C(=O)Nc1nc(-c2ccc(F)cc2)c(C)s1,-6,-3%,-6,6.9%,-4,-25,-1.1
O=S(=O)(Nc1cccnc1Cl)c1ccc2c(c1)OCCO2,-1,17%,-22,?,19,19,-3.1
O=C(COC(=O)c1ccccc1O)NC(c1ccccc1)c1ccccc1,-5,/,-1,-0.6%,/,10,5.7
O=C(NCC(=O)N1CCCCCC1)c1ccc(OC(F)F)cc1,-9,0%,-2,-0.6%,-3,0,-3.5
Cc1cc2c(cc1C)/C(=N/NC(=O)c1ccccn1)CCC2,-10,?,-29,10%,/,-21,0.8
COC(=O)C1=C(C)NC(C)=C(C(=O)OC)C1c1ccco1,-3,10%,0,0.9%,4,0,-1.3
c1ccc2c(c1)oc1c(Nc3ccc4c(c3)OCCO4)ncnc12,5,3%,-6,0.6%[38.3 µM],2,-1,-0.5
CCOCCNC(=O)c1ccc2c3c(cccc13)CC2,-27,10%,0,0.0%,8,0,-2.4
COC(=O)C1(C#N)C(c2ccccc2)C1(C(=O)OC)C(=O)OC (stereo not drawn),-6,-6%,2,0.5%,1,-7,-2.5
Cc1cc(NCC(C)C)n2ncnc2n1,-6,1%,6,0.4%,21,0,-1.8
Fc1ccc(NC(=S)Nc2ccc(F)c(Cl)c2)cc1Cl,-14,?,8,40µM*,-8,-2,1.3
COc1ccc(S(=O)(=O)N(C)CC(=O)Nc2ccc3c(c2)OCCO3)cc1,-10,/,1,1.3%,-1,-2,-1.5
Cc1ccc(NC(NC(=O)c2ccccc2[N+](=O)[O-])C(Cl)(Cl)Cl)cc1 (stereo not drawn),4,12%,3,0.1%,4,2,-2.5
O=C(COc1cccc(F)c1)Nc1ccc2[nH]c(=O)[nH]c2c1,-8,1%,/,-0.6%,8,-3,5.2

# Screening data (PubChem BioAssay)
